# Screening data as filed in PubChem.
# E coli growth: blocks Escherichia coli growth | OD600 absorbance (test concentration not listed) | 330,000 tested, 0.21% active | OD600, 23 h; hits give low values | AID 1053175;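 active = OD600 absorbance below the run mean of sample wells minus 3.6 SD, in any replicate, cut at about 0.56 in these data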;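 note: stock transfer was 300 nL into about 60 µL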
# RanGTP-Impb inh: disruptors of Ran-importin-beta complex formation – biochemical, FRET, CFP-Ran, YFP-importin-beta, homogeneous, primary screen | 300,000 tested, 1.1% active | cell-free CFP-Ran/YFP-importin-beta FRET ratio | inhibition, % (no concentration beside the values);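 active = most replicates above 15%; inconclusive = exactly half above 15%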;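 note: 0% = DMSO wells and 100% = Ran loaded with GDP instead of GTP; wells of about 40 µL received 100 nL stock; the first replicate is given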
# UCH37 DUB inh: inhibitors of human deubiquitinating enzyme UCH37; Q9Y5K5; purified proteasome/UCH37, Ub-AMC cleavage fluorescence; inhibition, % (no concentration beside the values); 330,000 tested, 0.33% active; AID 588478;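 active = mean of two replicates above 20%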;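 note: 0% = compound-free wells with enzyme and 100% = wells lacking proteasome; stock transfer was 100 nL into about 20 µL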
# Target sequence (Q9Y5K5 whole entry, looked up): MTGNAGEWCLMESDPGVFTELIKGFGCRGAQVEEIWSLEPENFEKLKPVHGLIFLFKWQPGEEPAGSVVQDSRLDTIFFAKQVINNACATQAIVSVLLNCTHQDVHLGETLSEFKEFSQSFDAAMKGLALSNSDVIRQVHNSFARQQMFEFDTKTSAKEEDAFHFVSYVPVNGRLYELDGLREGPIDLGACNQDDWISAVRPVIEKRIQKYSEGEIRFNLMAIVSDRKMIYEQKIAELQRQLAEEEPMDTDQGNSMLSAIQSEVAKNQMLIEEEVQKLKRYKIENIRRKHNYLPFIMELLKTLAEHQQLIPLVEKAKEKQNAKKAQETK
#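 Material: Human UCH37 enzyme supplied as purified proteasome complex | Schedule: 30 min compound-proteasome preincubation then 25 min substrate reaction, room temperature | Detection: AMC fluorescence from Ub-AMC cleavage, excitation 355 nm, emission 460 nm | Benchmarks: Wells without proteasome as full block, compound-free enzyme plus substrate as uninhibited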
# HNF4A DNA FP: change in binding of human HNF4 alpha to DNA. activity change, % at 10 µM. 360,000 tested, 0.3% active. HNF4a-FITC DNA binding, fluorescence polarization, 1 h; in the data active = activity change above about 30%, passing the limit was not always enough;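 note: controls were the assay level and a saturating level of protein; the project sought stronger binding though the title names inhibitors; some compounds called inactive have numbers as strong as hits; positive values seem to mean higher polarization but the record does not say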
# FGF22 binding: shifts melting point of recombinant human FGF22; Q9HCT0; recombinant FGF22 thermal shift, SYPRO orange fluorescence; percent of sucrose octasulfate shift, DMSO zero; calls only at 9.99 µM; 340,000 tested, 1.5% active; AID 651658;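 active = melting point raised past a set limit in the mean and every replicate; inconclusive = no clear call; three in four hits are not shown here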
# Target sequence (Q9HCT0 whole entry, looked up): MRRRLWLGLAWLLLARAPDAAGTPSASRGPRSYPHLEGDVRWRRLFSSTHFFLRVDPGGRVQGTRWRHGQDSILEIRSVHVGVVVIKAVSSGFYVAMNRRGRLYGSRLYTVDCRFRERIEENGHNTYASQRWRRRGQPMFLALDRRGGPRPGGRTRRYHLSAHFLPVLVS
# Vif A3G: HIV-1 Vif–A3G interaction blockers – biochemical, TR-FRET, GST-Vif 1-94, biotin-A3G peptide, dose response retest, primary screen (AID 1117319); TR-FRET GST-Vif / biotin-A3G peptide binding; higher % means a stronger effect; test concentration not given here; strong numbers were not always called active; inhibition, %, or IC50 in µM where a hit was titrated; 260,000 tested, 0.57% active;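 active = above the screen mean plus three standard deviations and confirmed in dose response; inconclusive = results disagree or hit not tested in dose response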;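 note: Vif residues 1-94 fused to GST binding biotinylated APOBEC3G peptide 110-148; 0% = full assay without inhibitor and 100% = GST in place of GST-Vif; retest series ran down from 100 µM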
# AF4-AF9 inh: MLL-AF4/AF9 protein interaction inhibition; AlphaScreen, biotin-AF4 peptide binding to FLAG-AF9; inhibition, % at 10 µM; 350,000 tested, 0.47% active; AID 651704;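 active = every replicate reaching a set inhibition limit, whatever the replicate mean, cut at about 25% in these data; inconclusive = mean inhibition reaches that limit but some replicates miss it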;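 note: 0% = plate neutral control median and 100% = total signal loss; the record names both 10 and 1 µM as test concentration; the first replicate is given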
# Target sequence (P42568 whole entry, looked up): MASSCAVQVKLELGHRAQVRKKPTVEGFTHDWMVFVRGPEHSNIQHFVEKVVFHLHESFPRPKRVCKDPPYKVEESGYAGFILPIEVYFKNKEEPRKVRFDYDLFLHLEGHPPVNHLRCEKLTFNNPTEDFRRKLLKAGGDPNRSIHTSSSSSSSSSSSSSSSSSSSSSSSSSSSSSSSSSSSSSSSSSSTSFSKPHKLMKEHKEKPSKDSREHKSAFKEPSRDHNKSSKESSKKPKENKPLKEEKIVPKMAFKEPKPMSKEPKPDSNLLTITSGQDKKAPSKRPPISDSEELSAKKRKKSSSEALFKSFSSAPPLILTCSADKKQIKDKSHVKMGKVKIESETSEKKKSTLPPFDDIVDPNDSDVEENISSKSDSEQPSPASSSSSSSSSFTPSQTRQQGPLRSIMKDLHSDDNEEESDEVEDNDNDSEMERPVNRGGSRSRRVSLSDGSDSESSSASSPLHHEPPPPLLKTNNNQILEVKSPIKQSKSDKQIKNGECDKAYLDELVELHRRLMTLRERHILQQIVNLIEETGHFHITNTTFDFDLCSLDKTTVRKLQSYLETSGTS
# * marks the source's active call; other numbers are inactive results; i = inactive; ? = inconclusive; / = no result given; & = joins results of further samples. These rows are one share of the data; count on the stated rates, not on these rows.
# Second line of a record – E coli growth	RanGTP-Impb inh	UCH37 DUB inh	HNF4A DNA FP	FGF22 binding	Vif A3G	AF4-AF9 inh
[1] CC(Cc1ccccc1)C(=O)NCCO (centres undefined)
  0.676	0.6	1.9	-1.3	i	-4.7%	-0.2
[2] CS(=O)(=O)N(CC(=O)N1CCOCC1)c1ccc2c3c(cccc13)CC2
  0.764	?	-8.4	0.2	/	1.3%	/
[3] COC(=O)C1C/C(=N/NS(=O)(=O)c2ccc(C)cc2)CS1 (centres undefined)
  /	2.4	/	12.5	i	7.1%	-0.2
[4] COc1ccc(C(=O)Nc2cc(Cl)ccc2Cl)c(OC)n1
  0.713	-0.8	2.1	0.5	/	-0.8%	/
[5] Cc1nn(Cc2c(Cl)cccc2Cl)c(C)c1NC(=O)c1cn(-c2ccccc2)nc1-c1ccccc1
  0.725	-2.1	3.1	-0.2	/	28.9%	/
[6] CC(=O)Nc1ccc(NC(=O)CS(=O)(=O)Cc2ccccc2)cc1
  0.722	1.6	2.1	10.3	i	/	-0.7
[7] Cc1cc2nc(N=C(N)N)nc(C)c2cc1C
  0.654	/	-3.3	2.4	i	/	2.7
[8] Cc1cc(C)c2c(CC(=O)NCCc3ccccc3)coc2c1
  0.732	-6.1	0.4	3.6	i	3.9%	-8.0
[9] Cc1cc(C(=O)N2CCN(Cc3ccc4c(c3)OCO4)CC2)cs1
  0.684	3.5	1.0	-3.0	i	14.2%	-1.1
[10] COc1ccc(C(C)C)cc1S(=O)(=O)Nc1ccc(Cl)cn1
  0.669	5.3	5.2	4.4	/	4.7%	/
[11] Cc1cccc(N2CCN(C(c3ccccc3)c3nnnn3C(C)(C)C)CC2)c1C (centres undefined)
  0.707	3.7	4.3	2.1	/	-3.2%	/
[12] COc1ccc(C2C(CC(=O)O)=C(O)C(=O)N2c2ccccc2)cc1 (centres undefined)
  0.771	-2.3	-3.8	2.9	/	-0.3%	/
[13] Cc1cc(OCCCC(=O)N2CCCCC2)cc(C)c1Cl
  0.752	-2.5	3.8	0.5	/	-6.3%	/
[14] CC(=O)NS(=O)(=O)c1ccc(NC(=S)NC(=O)C(C)C)cc1
  0.758	-1.5	-0.5	6.0	/	1.0%	/
[15] c1ccc2c(c1)ncn2Cc1nnc2sc(-c3ccncc3)nn12
  0.723	-2.9	1.9	2.5	/	3.2%	/
[16] CCCSc1n[nH]c(NC(C)=O)n1
  0.719	0.2	3.9	2.4	i	5.0%	2.6
[17] CCOc1ccc(C(=O)Nc2cccc3ncccc23)cc1Cl
  0.66	-1.6	-6.5	5.4	i	/	-1.2
[18] CCOC(=O)c1ccccc1NC(=O)COC(=O)C(Cc1c[nH]c2ccccc12)NC(C)=O (centres undefined)
  0.689	/	3.1	3.3	i	-5.3%	2.9
[19] Cc1ccc(C2CCN(C(=S)Nc3cccc(C)c3)C2)cc1 (centres undefined)
  0.662	-0.9	3.1	-1.0	i	/	0.6
[20] Cc1[nH]c(C)c(S(=O)(=O)N(Cc2ccccc2)C(C)(C)C)c1C(=O)N1CCCC1
  0.72	1.4	-0.9	4.4	i	/	0.9
[21] Cc1ccc(Nc2nc(C)cc(C)c2C(N)=O)c(C)c1
  0.66	5.5	4.6	1.0	i	/	2.5
[22] Cc1cccc(OCCNC(=O)c2ccc(Cl)c(S(=O)(=O)NCc3cccnc3)c2)c1
  0.702	/	3.0	1.3	i	4.2%	1.6
[23] COc1cc(C2=NOC(C(=O)N3CCCc4ccccc43)C2)cc(OC)c1OC (centres undefined)
  0.721	-3.7	2.1	-2.7	/	2.4%	/
[24] C/C(=N\NC(=O)Cc1ccc(F)cc1)c1ccc(F)cc1
  /	?	/	1.9	/	-2.6%	/
[25] CCOc1ccccc1NC(=O)CSc1ccc(-c2sc(C)nc2C)nn1
  0.697	2.9	-0.4	-4.7	i	2.2%	0.7
[26] CCCCCCCn1c(=N)n(CC(=O)c2ccco2)c2ccccc21
  0.694	4.5	2.5	5.8	/	0.9%	/
[27] N=c1c(C(=O)NCCN2CCOCC2)cc2c(=O)n3ccccc3nc2n1Cc1ccc(F)cc1
  0.643	127.4*	-444.7	-0.4	i	-4.2%	1.1
[28] CCN(CC(=O)Nc1c(F)cccc1F)C(=O)c1ccc(N2CCCCC2)c([N+](=O)[O-])c1
  0.73	-6.3	1.0	-0.2	i	/	2.8
[29] Cc1cc2[nH]c(=O)c(=O)[nH]c2cc1S(=O)(=O)N1CCN(c2ccccc2)CC1
  0.75	-3.1	1.4	0.5	i	-7.5%	-0.9
[30] NC(=O)CSc1nnc(-c2cccnc2)n1CCc1ccccc1
  0.726	-3.0	2.5	2.6	/	-4.9%	/
[31] CC(=O)Nc1ccc(C(=O)NNC(=O)c2cccc(C)c2)cc1
  0.682	-1.0	1.2	-3.0	i	/	0.3
[32] CCCCNC(=O)c1ccccc1NC(=O)c1ccccc1N(C)S(C)(=O)=O
  0.679	0.1	-0.9	-0.3	/	-4.5%	/
[33] Cn1c(=O)oc2cc(S(=O)(=O)Nc3ccc(F)cc3)ccc21
  0.663	2.5	1.2	-3.1	i	-15.5%	-2.9
[34] O=C(Nc1ccccn1)C1CCN(C(=O)Nc2ccccc2)CC1
  0.627	2.3	2.8	-1.3	i	5.7%	-3.4
[35] C=CCN(CC=C)CCCOc1ccccc1C(=O)OC
  0.659	-2.9	7.0	1.0	i	-3.3%	-3.0
[36] CCOC(=O)c1sc(-c2ccccc2)cc1NC(=O)c1ccc(S(=O)(=O)N(CCOC)CCOC)cc1
  /	4.0	/	0.5	/	-19.8%	/
[37] COC(=O)C[C@@H]1OC[C@H](C)N1S(=O)(=O)c1ccc(C)cc1
  /	/	/	3.7	i	/	1.6
[38] O=C(CSc1ncnc2ccccc12)NCCc1ccccc1
  0.708	-3.8	4.0	0.1	i	4.9%	-1.3
[39] Cc1nc(=O)c(-c2ccccc2)c(C)n1-c1ccc(Br)cc1
  0.659	-2.4	0.9	1.5	i	-3.6%	-0.9
[40] O=C(Cn1cc(C(F)(F)F)ccc1=O)NC1CCCC1
  0.736	/	3.4	1.6	i	0.4%	-0.5
[41] CCCCNc1c([N+](=O)[O-])c(=O)n(C)c2ccccc12
  0.737	-1.7	6.5	2.2	i	31.1%	-1.4
[42] COc1cc(S(=O)(=O)Nc2ccc(C)cc2)ccc1N=Cc1c(C)c(C#N)c(=O)n(C)c1O
  /	-13.3	/	25.2	/	-17.4%	-1.0
[43] COc1ccc(OC)c(-c2cc(C(=O)Nc3ccc(F)cc3F)no2)c1
  0.684	0.8	-38.8	0.8	i	/	-23.4
[44] Cc1cccc(NC(=O)c2cc([N+](=O)[O-])ccc2NCC2CCCO2)n1 (centres undefined)
  0.699	-0.1	7.1	3.1	i	12.3%	1.9
[45] CCOC(=O)c1cccc(NC2c3ccccc3C(=O)N2Cc2ccco2)c1 (centres undefined)
  0.774	5.0	1.5	-5.5	i	6.8%	4.7
[46] O=C(CSc1nnc(CNc2ccc(F)cc2)n1-c1ccccc1)N1CCOCC1
  0.714	0.1	2.1	0.4	/	-0.1%	/
[47] c1ccc(-n2nnc3cnccc32)cc1
  0.671	8.1	1.5	-2.2	/	?	/
[48] Cc1ccc(SCCC(=O)NCC2CCCO2)cc1 (centres undefined)
  0.763	?	5.7	-0.3	/	22.5%	/
[49] CCC(=O)Nc1ccc(NC(=O)c2ccc3c(c2)OCO3)cc1
  0.715	4.9	-2.8	2.0	/	8.4%	/
[50] COc1ccc(OC)c(S(=O)(=O)NCCS(=O)(=O)N2CCN(c3ccccc3)CC2)c1
  0.695	1.5	1.4	5.1	i	/	-1.2

# Continued.
# Second line of a record – E coli growth	RanGTP-Impb inh	UCH37 DUB inh	HNF4A DNA FP	FGF22 binding	Vif A3G	AF4-AF9 inh
[51] COCCNC(=O)C1(C)CCN(Cc2csc(-c3ccc(Cl)cc3)n2)C1 (centres undefined)
  /	/	/	2.8	i	/	2.9
[52] COc1ccc(/C=N/n2c(C)nc3ccccc3c2=O)cc1
  /	1.0	/	1.3	i	/	5.0
[53] COc1ccc(N2CCCC2=O)cc1S(=O)(=O)N1CCOCC1
  /	/	/	21.9	i	-5.2%	-4.9
[54] Cc1cc(C)nc(NC(=O)CSc2nn(C)c(=S)s2)n1
  0.693	-1.7	7.3	-0.1	/	6.0%	/
[55] COc1ccc(N2CCN(C(=O)CCCC(=O)c3ccccc3)CC2)cc1
  0.737	3.3	4.4	0.3	i	-4.7%	8.9
[56] O=C(c1ccco1)N1CCN(C2CN(Cc3ccc(F)cc3)S(=O)(=O)C2)CC1 (centres undefined)
  /	/	/	4.0	i	/	-3.4
[57] O=C(NCCCNC(=O)c1cccnc1)c1ccc(Cl)cc1
  0.642	6.4	2.6	-0.2	i	/	-0.7
[58] Cc1ccc(Cl)cc1NC(=O)C1CCCN(S(C)(=O)=O)C1 (centres undefined)
  0.698	1.6	3.8	4.2	i	/	-5.7
[59] COc1cc(CNc2nc3c(C)cc(C)cc3s2)ccc1O
  0.659	-3.2	4.6	-1.8	i	-3.3%	4.4
[60] CC1CCCN(S(=O)(=O)c2ccc(C(=O)Nc3nnc(-c4ccccc4Cl)o3)cc2)C1 (centres undefined)
  0.727	6.1	-2.0	-0.8	/	18.1%	/
[61] CN1CCC(N2CCN(C3CN(Cc4ccc(F)cc4)S(=O)(=O)C3)CC2)CC1 (centres undefined)
  /	/	/	-4.6	i	/	-3.8
[62] Cc1cc(=O)n2nc(N3CCCC(C(=O)NCc4ccco4)C3)sc2n1 (centres undefined)
  0.746	0.8	0.1	-4.3	/	-8.6%&-3.2%	/
[63] COc1ccccc1C(=O)NCCC(=O)NCc1cccs1
  0.606	3.2	-4.2	2.0	i	-10.7%	-14.7
[64] COc1ccc(/C=N\NC(=O)c2cc3c(ccc4ccccc43)o2)cc1O
  /	/	/	8.7	i	4.3%	-1.4
[65] N#Cc1cc(O)c(-n2nnc3ccccc32)cc1C#N
  0.648	-2.1	-13.5	6.1	/	-5.8%	-2.1
[66] C/[N+]([O-])=C\C1C(=O)CCCC1=O
  /	-1.6	-1.2	1.3	i	0.2%	-2.4
[67] CCCCS(=O)CC(COCc1ccccc1)OC(=O)CSc1nc(C)cc(C)n1 (centres undefined)
  0.679	2.6	6.1	-0.5	/	-9.3%	/
[68] O=C1CC[C@@H](C(=O)N2CSC[C@H]2C(=O)O)N1
  /	3.4	-0.5	2.2	i	-4.1%	-4.2
[69] CCCn1nc(NC(=O)COC)c2cc3cc(C)ccc3nc21
  0.621	23.3*	-44.4	0.3	/	-12.0%	/
[70] CC(C)(C)C(=O)NC(=S)Nc1cc(C(F)(F)F)ccc1N1CCOCC1
  0.726	5.7	-0.4	-7.2	/	-1.1%	/
[71] O=C(CN1CCN(S(=O)(=O)c2ccc3c(c2)OCCO3)CC1)Nc1cccc(F)c1
  0.708	/	2.3	5.7	i	1.7%	-0.8
[72] CCC1SC(CC)C(=O)N(CC(=O)Nc2ccc3c(c2)OCO3)C1=O (centres undefined)
  0.668	3.4	1.3	2.5	i	/	0.5
[73] CC(Oc1cccc(Cl)c1)C(=O)Nc1cc(=O)n(C)c(=O)n1C (centres undefined)
  0.725	3.3	4.1	1.0	/	10.6%	/
[74] CCN(C(=O)COC(=O)c1ccccc1Nc1ccccc1)c1c(N)n(Cc2ccccc2)c(=O)[nH]c1=O
  0.732	/	-10.8	2.0	i	/	2.9
[75] Cc1ccccc1OCC(=O)N(Cc1nc(-c2ccccc2)no1)C(C)C
  0.707	0.6	2.1	-2.0	/	14.0%	/
[76] CCn1c(-c2cccnc2)n[nH]c1=S
  0.723	5.1	4.1	0.3	i	-1.6%	-1.4
[77] Cc1c(CNCC(C)c2ccccc2)c(C(=O)O)c(C)n1Cc1ccccc1 (centres undefined)
  0.682	3.5	-2.7	4.3	i	?	0.0
[78] CCOCCCNC(=O)C(c1ccccc1)N(Cc1ccc2c(c1)OCO2)C(=O)c1ccccc1O (centres undefined)
  0.727	3.3	1.1	0.8	i	-5.8%	-0.1
